Compound activity deposited in PubChem by National Center for Advancing Translational Sciences (NCATS).
Six1-Eya2 inh: qHTS Assay for Inhibitors of the Six1/Eya2 Interaction. AlphaScreen GST-Six1/His-Eya2 binding, biochemical; stronger effect = lower value; control for the full effect not named in the record. activity change, % (no concentration beside the values). 360,000 tested, 0.56% active; in the data active = activity change below about -65%; inconclusive = about -30% to -65%; inactive = above about -30%; also: % is scaled to controls: 0 for no effect and ±100 for the full control effect; compound concentration not given in the record
Target sequence (O00167 whole entry, looked up): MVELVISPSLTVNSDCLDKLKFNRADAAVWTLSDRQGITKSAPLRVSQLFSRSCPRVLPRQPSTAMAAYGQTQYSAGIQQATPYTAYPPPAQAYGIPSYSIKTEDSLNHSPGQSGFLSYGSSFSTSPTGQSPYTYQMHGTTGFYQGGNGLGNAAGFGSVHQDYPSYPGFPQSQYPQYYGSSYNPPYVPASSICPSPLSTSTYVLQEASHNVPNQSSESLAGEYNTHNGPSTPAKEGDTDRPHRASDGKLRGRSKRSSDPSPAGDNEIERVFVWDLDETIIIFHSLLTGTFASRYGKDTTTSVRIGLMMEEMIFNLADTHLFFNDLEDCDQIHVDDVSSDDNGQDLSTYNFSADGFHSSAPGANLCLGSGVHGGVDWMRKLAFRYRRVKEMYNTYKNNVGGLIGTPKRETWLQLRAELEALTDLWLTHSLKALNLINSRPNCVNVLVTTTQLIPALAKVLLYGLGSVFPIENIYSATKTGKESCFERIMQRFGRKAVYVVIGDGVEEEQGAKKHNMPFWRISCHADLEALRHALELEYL
Target sequence (Q15475 whole entry, looked up): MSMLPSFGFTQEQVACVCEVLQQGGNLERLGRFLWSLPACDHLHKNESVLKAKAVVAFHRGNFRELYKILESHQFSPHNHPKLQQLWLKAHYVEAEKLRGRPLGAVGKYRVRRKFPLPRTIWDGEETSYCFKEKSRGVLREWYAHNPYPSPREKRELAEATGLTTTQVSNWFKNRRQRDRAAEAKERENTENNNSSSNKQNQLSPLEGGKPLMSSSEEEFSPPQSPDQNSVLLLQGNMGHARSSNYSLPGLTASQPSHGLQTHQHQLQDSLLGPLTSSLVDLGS
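Compounds are tested against tagged Six1 and Eya2 proteins bridged by glutathione donor and nickel acceptor beads; after a one-hour incubation at 37 °C without light, AlphaScreen emission is recorded.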
D2 potentiator: Beta-Arrestin HTS for Positive Allosteric Modulators of the Human D2 Dopamine Receptor: Potentiators; potentiation, % (no concentration beside the values); AID 624464, 2012; 360,000 tested, 0.23% active; D(2) dopamine receptor (Homo sapiens), P14416; DiscoveRx D2 beta-arrestin cells, luminescence, 90 min; 100% = 57 uM dopamine signal; active = potentiation of 50% or more; inconclusive = 30% to 50%; inactive = 30% or less;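 also: compound concentration not given in the record; tested on top of an EC20 dose of dopamine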
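PathHunter D2 cells, attached overnight at 37 deg C, received compound in DMSO plus dopamine at EC20 (50 nM final) for 90 min at 37 deg C. Beta-arrestin recruitment was read as luminescence after 1 h with detection reagent at ambient temperature.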
CtBP-E1A blk: qHTS Assay for Inhibitors of the CtBP/E1A Interaction | CtBP / adenovirus E1A interaction (AlphaScreen) | activity change, % (test concentration not listed) | AID 651724, 2012 | AlphaScreen GST-E1A/His-CtBP binding, 1536-well; stronger effect = lower value; control for the full effect not named in the record | 340,000 tested, 0.49% active; in the data active means activity change below about -65%; inconclusive means about -30% to -65%; inactive means above about -30%; also: % is scaled to controls: 0 for no effect and ±100 for the full control effect; compound concentration not given in the record
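Protein mix (5X: 125 nM each GST-E1A, His-CtBP) was incubated with pinned compound 2 h at 37 deg C in dark, in 50 mM Tris pH 8.0 buffer with 300 mM NaCl. Glutathione donor and nickel acceptor beads followed; AlphaScreen signal read after 1 h.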
gsp agonist: qHTS for Agonist of gsp, the Etiologic Mutation Responsible for Fibrous Dysplasia/McCune-Albright Syndrome: qHTS; gsp mutant cells, cAMP HTRF, 30 min; control for the full effect not named in the record; Potency, µM (top dose mostly 76.9 µM), without a hit: top-dose activation (cAMP increase), hits mostly activators; 340,000 tested, 0.13% active; AID 624287, 2012; active = well fitted activation curve with a large enough effect; inconclusive = small, poorly fitted or top-dose-only effect, or another doubt; inactive = no such curve, though single readings can be large or run the other way; cell line not stated here;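 also: phosphodiesterase inhibitor Ro 20-1724 added with compounds to block cAMP breakdown; potency is read from the fitted curve at half-maximal effect; nearly all actives have a fitted effect of over 60% in size; about a fifth of the inactives were tested at one dose only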
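Cells in DMEM/10% FBS with G418 were pretreated with compounds in DMSO plus […] (300 uM stock) for 30 min at 37C. cAMP was measured by HTRF (cAMP-d2 plus anti-cAMP antibody-K) after 30 min at room temperature.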
gsp antagonist: qHTS for Antagonists of gsp, the Etiologic Mutation Responsible for Fibrous Dysplasia/McCune-Albright Syndrome: qHTS; gsp-mutant cells, cAMP HTRF, 30 min; control for the full effect not named in the record; Potency, µM (highest dose often 76.9 µM), inactives show at the top dose activity change, negative = inhibition, most hits filed as inhibitors; 340,000 tested, 0.4% active; active = falling curve of any shape with a large fitted effect; inconclusive = falling curve, mostly with a smaller effect; inactive = flat or rising curve; cell line not stated here;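 also: intracellular cAMP measured with PDE inhibitor Ro 20-1724 present during compound exposure; potency is read from the fitted curve at half-maximal effect; % is scaled to controls: 0 for no effect and ±100 for the full control effect; nearly all actives have a fitted effect of over 65% in size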
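Cells in G418 medium, seeded 16-24 h, 37C; buffer exchange to DPBS + 1 mM CaCl2, 0.5 mM MgCl2, 0.05% BSA; cpds in DMSO + […] (300 uM stock), 30 min 37C; HTRF cAMP detection.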
D2 ag: Beta-Arrestin HTS for Positive Allosteric Modulators of the Human D2 Dopamine Receptor: Agonists; activation, % (concentration not given with the values); D(2) dopamine receptor (Homo sapiens), P14416; 360,000 tested, 0.084% active; DiscoveRx PathHunter D2 beta-arrestin, luminescence, 90 min; 100% = 57 uM dopamine signal; in the data active = activation above about 40%; inconclusive = about 15% to 40%; inactive = below about 15%; also: compound concentration not given in the record; the text of the record calls up to 30% inactive
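Agonist mode: compounds alone added to overnight-plated D2 PathHunter cells for 90 min at 37 C, with 57 uM final dopamine (EC100) defining full response. Beta-arrestin recruitment detected by chemiluminescent reagent, read after 1 h at ambient temperature.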
Numbers without * were called inactive; [ ] = dose if it differs, or a comment.

Cn1cccc1C(=O)NC(=O)COC(=O)Cc1coc2ccc3ccccc3c12 was read as Six1-Eya2 inh -20, D2 potentiator 4, CtBP-E1A blk -7, gsp agonist -2%, gsp antagonist -17% and D2 ag 3.4.
Screening N#Cc1cccc(S(=O)(=O)NNC(=O)C23CC4CC(CC(C4)C2)C3)c1 returned Six1-Eya2 inh 3, D2 potentiator -2, CtBP-E1A blk -2, gsp agonist 2%[15.4 µM], gsp antagonist -2% and D2 ag -2.0.
`CCC(OC(=O)c1ccco1)C(=O)NCc1ccc(OC)cc1` (stereo not drawn) gave Six1-Eya2 inh -5, D2 potentiator 2, CtBP-E1A blk 3, gsp agonist 18%, gsp antagonist 16% and D2 ag -2.8.
Screening Nc1nc(-c2ccc(F)cc2)cc(C(F)(F)F)n1 returned Six1-Eya2 inh 0, D2 potentiator -2, CtBP-E1A blk -14, gsp agonist -18%, gsp antagonist -1% and D2 ag 0.0.
Screening CCN(CC)CCCCCC(=O)Nc1ccccc1C(=O)Nc1ccccc1 returned Six1-Eya2 inh -6, D2 potentiator -8, CtBP-E1A blk -8, gsp agonist -2%[15.4 µM], gsp antagonist 7% and D2 ag -0.6.
COC(=O)c1cccc(S(=O)(=O)N2CCC(c3nc4ccccc4o3)CC2)c1 was read as Six1-Eya2 inh -1, D2 potentiator 5, CtBP-E1A blk 5, gsp agonist 4%, gsp antagonist -17% and D2 ag 1.8.
For CCOC(=O)c1c(NC(=O)Cn2c(=O)oc3ccccc32)oc(C)c1C(C)=O the results were Six1-Eya2 inh 11, D2 potentiator -12, CtBP-E1A blk 2, gsp agonist -54%[inhibitor], gsp antagonist -1% and D2 ag 5.6.
For O=C(NC1CC(=O)N(c2ccccc2)C1)N1CCN(C(=O)c2ccco2)CC1 (stereo not drawn) the results were Six1-Eya2 inh 0, D2 potentiator -10, CtBP-E1A blk 0, gsp agonist -3%[15.4 µM], gsp antagonist 4% and D2 ag -2.8.
CCCCn1c(N)c(N(CC(C)C)C(=O)c2cc3c(s2)CCCCC3)c(=O)[nH]c1=O was read as Six1-Eya2 inh 1, D2 potentiator -6, CtBP-E1A blk 13, gsp agonist 24%[15.4 µM], gsp antagonist 6% and D2 ag -2.9.
Screening CC1(C)CC(=O)C2=C(C1)N(c1cccc(O)c1)C1=C(C2)C(=O)CC(C)(C)C1 returned Six1-Eya2 inh -3, D2 potentiator 11, CtBP-E1A blk 1, gsp agonist -3%, gsp antagonist -11% and D2 ag -3.8.
Oc1ccc2oc3c(c2c1/C=N/n1cnnc1)CCCC3 was read as Six1-Eya2 inh 5, D2 potentiator 2, CtBP-E1A blk 9, gsp agonist -6%, gsp antagonist 14% and D2 ag 1.3.
For Cc1ccc(S(=O)(=O)N2CCOCC2)cc1C(=O)N1CCN(S(=O)(=O)c2ccccc2F)CC1 the results were Six1-Eya2 inh 1, D2 potentiator -1, CtBP-E1A blk 2, gsp agonist -26%, gsp antagonist 1% and D2 ag 0.0.
CCOc1ccc(NC(=S)N(CCc2c(C)[nH]c3ccccc23)Cc2cccnc2)cc1 was read as Six1-Eya2 inh -11, D2 potentiator -4, CtBP-E1A blk 5, gsp agonist -26%, gsp antagonist -26% and D2 ag -3.7.
COc1ccc(CN(C)CC(=O)Nc2ccc(N3CCOCC3)cc2)cc1OC was read as Six1-Eya2 inh 14, D2 potentiator -8, CtBP-E1A blk 5, gsp agonist -10%, gsp antagonist 6% and D2 ag 1.2.
`COc1ccccc1Nc1nc(N)nc(CSc2nc(C)cc(C)n2)n1` gave Six1-Eya2 inh -3, D2 potentiator -9, CtBP-E1A blk -2, gsp agonist 22%, gsp antagonist 10% and D2 ag -0.3.
For O=C(CCc1nnc(C2CCCCC2)o1)N1CCN(Cc2ccccc2)CC1 the results were Six1-Eya2 inh 2, D2 potentiator -3, CtBP-E1A blk 6, gsp agonist 11%[15.4 µM], gsp antagonist -6% and D2 ag 0.9.
`CC(C)C(=O)Nc1ccc(N2CCN(c3ccc(F)cc3)CC2)cc1` gave Six1-Eya2 inh -2, D2 potentiator 4, CtBP-E1A blk 15, gsp agonist -29%, gsp antagonist 9% and D2 ag 3.0.
O=C(O)c1[nH]c(-c2ccccc2)c2c1C(=O)N(C1CC1)C2=O was read as Six1-Eya2 inh -28, D2 potentiator -5, CtBP-E1A blk -19 and D2 ag -4.0.
Cc1cc(C(C)(C)C)oc1C(=O)OCC(=O)NC1CCCCC1 was read as Six1-Eya2 inh 7, D2 potentiator -7, CtBP-E1A blk -5, gsp agonist -32%[inhibitor], gsp antagonist -2% and D2 ag -13.
COc1ccc(NC(=O)c2sc(SCc3ccccc3)nc2N)cc1 was read as Six1-Eya2 inh -14, D2 potentiator 0, CtBP-E1A blk -9, gsp agonist -72%[inhibitor], gsp antagonist 12% and D2 ag -1.2.
`Clc1cccc(OCCn2cncn2)c1Cl` gave Six1-Eya2 inh -1, D2 potentiator -5, CtBP-E1A blk 2, gsp agonist inconclusive, gsp antagonist 1% and D2 ag -0.2.
CCOc1ccc(N2CC(C(=O)NCc3ccccn3)CC2=O)cc1 (stereo not drawn) was read as Six1-Eya2 inh -1, D2 potentiator -3, CtBP-E1A blk 3, gsp agonist 8%, gsp antagonist -6% and D2 ag 1.2.
For CCCCC(=O)N(C)c1c(CC)nc2c(OCC(=O)c3ccc(F)cc3)cccn12 the results were Six1-Eya2 inh 2, D2 potentiator -5, CtBP-E1A blk 0 and D2 ag -1.7.
Screening c1cncc(-c2nc3ccccc3o2)c1 returned Six1-Eya2 inh 2, D2 potentiator -5, CtBP-E1A blk 6, gsp agonist -15%, gsp antagonist -2% and D2 ag 3.1.
`COc1ccc(C(F)(F)F)cc1N/C=C/c1nnnn1-c1ccc2ccccc2c1` gave Six1-Eya2 inh 4, D2 potentiator -3, CtBP-E1A blk 0, gsp agonist 14%[15.4 µM], gsp antagonist -2% and D2 ag -2.6.
Screening CCOC(=O)c1[nH]c2ccc(OC)cc2c1NC(=O)c1ccc2c(c1)OCO2 returned Six1-Eya2 inh -2, D2 potentiator -15, CtBP-E1A blk 5, gsp agonist 15%, gsp antagonist -11% and D2 ag -5.2.
`O=C(CN1C(=O)NC2(CCCCC2)C1=O)Nc1ccc(S(=O)(=O)N2CCOCC2)cc1` gave Six1-Eya2 inh 6, D2 potentiator -2, CtBP-E1A blk 3, gsp agonist inconclusive, gsp antagonist -7% and D2 ag -0.8.
`O=C(CCC(=O)OCc1cccc([N+](=O)[O-])c1)Nc1ccc(F)cc1` gave Six1-Eya2 inh 11, D2 potentiator -7, gsp agonist -81%, gsp antagonist 8% and D2 ag -4.3.
Screening CCC1CCCCN1C(=O)CSc1n[nH]c(N)n1 (stereo not drawn) returned Six1-Eya2 inh -4, D2 potentiator -1, CtBP-E1A blk 7, gsp agonist inconclusive, gsp antagonist 10% and D2 ag 1.0.
`CNS(=O)(=O)c1ccc(C(=O)NCC(=O)NCC2COc3ccccc3O2)cc1` (stereo not drawn) gave Six1-Eya2 inh 9, D2 potentiator -5, gsp agonist 20%, gsp antagonist 9% and D2 ag -2.0.
O=C(NN1C(=O)c2ccccc2NC1c1ccc([N+](=O)[O-])o1)c1ccc([N+](=O)[O-])cc1 (stereo not drawn) was read as Six1-Eya2 inh -23, D2 potentiator -5, CtBP-E1A blk -15, gsp agonist 1.8µM*, gsp antagonist 29% and D2 ag 13.
Screening COc1ccc(C(=O)Nc2cccc(C(=O)NCc3ccccc3)c2)cc1 returned Six1-Eya2 inh -18, D2 potentiator -5, CtBP-E1A blk -11, gsp agonist -2%, gsp antagonist -9% and D2 ag 1.2.
O=C(NC(=S)N1CCCC1)c1ccc(Cl)cc1 was read as Six1-Eya2 inh 5, D2 potentiator -10, CtBP-E1A blk 0, gsp agonist -6%, gsp antagonist 12% and D2 ag -1.5.
`CC1=CC(C)(C)Nc2ccc(OC(=O)CCN3C(=O)c4ccccc4C3=O)cc21` gave Six1-Eya2 inh -3, D2 potentiator 131*, CtBP-E1A blk 3, gsp agonist 19%, gsp antagonist -6% and D2 ag inconclusive.
Screening COc1ccc(CCNCc2ccc(OCc3ccccc3)cc2)cc1 returned Six1-Eya2 inh 9, D2 potentiator -11, CtBP-E1A blk 1, gsp agonist 9%, gsp antagonist 9% and D2 ag -8.0.
Screening O=C(Nc1n[nH]c(=S)s1)c1ccco1 returned Six1-Eya2 inh 0, D2 potentiator 14, CtBP-E1A blk -3, gsp agonist 0%, gsp antagonist -14% and D2 ag 7.9.
For Cc1ccc(C(=O)NCc2nc3ccccc3[nH]2)o1 the results were Six1-Eya2 inh 0, D2 potentiator -12, CtBP-E1A blk -4, gsp agonist inconclusive, gsp antagonist 1% and D2 ag -1.5.
Screening COc1ccc(CCNC(=O)CC(=O)N/N=C/c2ccc(Br)cc2)cc1OC returned Six1-Eya2 inh -3, D2 potentiator -1, CtBP-E1A blk -3, gsp agonist 12%, gsp antagonist 2% and D2 ag -1.5.
`CCCCc1nc2cc(C(=O)N3CCC[C@H]3CO)ccc2o1` gave Six1-Eya2 inh 6, D2 potentiator -6, gsp agonist -55%[inhibitor], gsp antagonist 5% and D2 ag -1.4.
